A488 fluor: compound autofluorescence in A488 spectral region; max dye equivalency, M; hit rate 0.1% among 59,000; AID 591; compound autofluorescence, A488 spectral region, dye equivalency; active compounds read high; active = above 10 nM dye equivalent; inconclusive = 1 to 10 nM; inactive = 1 nM or less; about half of its hits are not listed in these tables;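 note: highest value over a series up to 38 µM; compound alone in buffer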
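Intrinsic compound fluorescence is measured in 100 mM Tris buffer at pH 8.0 following 15 min incubation at room temperature. Intensities at 480 nm excitation/540 nm emission are calibrated to an on-plate A488 concentration series, giving dye-equivalent concentrations.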
A647 fluor: compound fluoresces in the A647 spectral region | Compound fluorescence, A647 channel (570/671 nm), Tris buffer | max dye-equivalent concentration, M | 59,000 tested, under 10 active | AID 592; active means above 1 µM dye equivalent; inconclusive means 0.1 to 1 µM; inactive means 0.1 µM or less;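 note: values scaled relative to a standard on each plate; highest value over a series up to 38 µM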
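Compound fluorescence was measured in 100 mM Tris buffer, pH 8.0, after 15 min at room temperature, using 570 nm excitation and 671 nm emission filters. Signal was normalized to a per-plate Alexa 647 standard curve and expressed as dye-equivalent concentration at each compound concentration.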
TSHR ag: activates the human thyroid stimulating hormone receptor; P16473; HEK293-CNG-TSHR cells (CNG channel as cAMP sensor), membrane potential dye, cAMP; Potency, µM (titrated, usually from 57.1 µM), inactives show at the highest dose activation, actives largely listed as activators; hit rate 0.48% among 73,000; AID 926; active = well fitted activation curve of enough size with the parental cells flat; inconclusive = any curve in the parental cells; inactive = parental cells flat and receptor cells flat or falling; note: potency is the fitted concentration of half-maximal effect; % of control where 0% means no effect; weak receptor curves with flat parental cells got no call and are not listed
Target sequence (P16473 whole entry, looked up): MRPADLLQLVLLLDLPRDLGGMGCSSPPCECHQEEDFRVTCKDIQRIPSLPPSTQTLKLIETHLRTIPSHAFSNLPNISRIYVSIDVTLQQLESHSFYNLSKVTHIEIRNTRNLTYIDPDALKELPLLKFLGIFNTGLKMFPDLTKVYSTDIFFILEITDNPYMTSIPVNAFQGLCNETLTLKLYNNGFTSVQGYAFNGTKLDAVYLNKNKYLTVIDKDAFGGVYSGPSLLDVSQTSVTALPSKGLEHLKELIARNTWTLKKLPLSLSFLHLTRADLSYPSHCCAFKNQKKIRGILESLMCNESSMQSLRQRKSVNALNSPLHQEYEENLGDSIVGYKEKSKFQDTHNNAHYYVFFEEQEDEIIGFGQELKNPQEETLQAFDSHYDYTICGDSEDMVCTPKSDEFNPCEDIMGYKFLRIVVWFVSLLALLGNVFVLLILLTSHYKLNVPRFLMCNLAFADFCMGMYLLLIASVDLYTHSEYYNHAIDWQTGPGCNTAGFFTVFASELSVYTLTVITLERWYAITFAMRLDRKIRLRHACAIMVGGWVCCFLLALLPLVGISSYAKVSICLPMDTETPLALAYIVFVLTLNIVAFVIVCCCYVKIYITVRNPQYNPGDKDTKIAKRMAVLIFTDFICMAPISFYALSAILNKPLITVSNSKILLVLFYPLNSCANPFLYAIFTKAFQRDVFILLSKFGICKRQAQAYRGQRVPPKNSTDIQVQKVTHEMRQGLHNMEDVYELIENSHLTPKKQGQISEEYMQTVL
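HEK 293 cells stably expressing TSHR and a modified CNG channel, with CNG-only parental cells as counterscreen, were preloaded 60 min at room temperature with membrane potential dye containing 100 uM RO 20-1724. Compound exposure was 30 min, and depolarization was read as fluorescence at 590 nm.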
AID923: qHTS Assay for Allosteric/Competitive Inhibitors of Caspase-1: Spectroscopic Profiling in AFC Spectral Region | hit rate 1.1% among 75,000 | Potency, µM (top dose mostly 57.5 µM), for inactives: at the top dose fluorescence increase, hits mostly activators | compound fluorescence, AFC spectral region (405/520 nm); almost no hit is shown here | AID 923, 2007; active = well fitted activation curve with a large enough effect; inconclusive = small, poorly fitted or top-dose-only effect;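 note: potency is the fitted concentration of half-maximal effect; 0% is about no effect; scaled to a free AFC standard on each plate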
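Titrations up to 57 uM read every 20 sec for 3 min (405/520 nm) with 50 nM caspase 1 and 5 uM Ac-WEHD-AFC, pH 7.5 HEPES buffer. Fluorescence-vs-time intercept gave baseline, scaled against on-plate AFC standard.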
Resorufin fluor: resorufin region autofluorescence; hit rate 0.04% among 59,000; AID 588; Compound fluorescence, resorufin region 547/598 nm, buffer; active compounds read high; max dye-equivalent concentration, M; active = above 10 nM dye equivalent; inconclusive = 1 to 10 nM; inactive = 1 nM or less; a few of its hits are not listed in these tables; note: highest value over a series up to 38 µM
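Read-out: intrinsic compound fluorescence at ex 547/em 598 nm after 15 min at RT in pH 8.0 Tris (100 mM). Values expressed as resorufin-equivalent concentration from per-plate standard series.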
Numbers without * were called inactive; i = inactive; ? = inconclusive; nt = not tested or not shown; [ ] = another dose, or the depositor's remark. These rows are one share of the data; rates above refer to the full screens.

| Compound | A488 fluor | A647 fluor | TSHR ag | AID923 | Resorufin fluor |
| --- | --- | --- | --- | --- | --- |
| OC(CNCC(c1ccco1)N1CCCCC1)c1ccccc1 (centres undefined) | i | 1e-09 | ? | -0.6% | i |
| CNCCCCCCCCSc1nc(C(C)C)ccc1C(=O)c1cccs1 | nt | nt | 23% | -0.2% | nt |
| Cn1c(=O)c2c(nc(CN3CCN(Cc4ccccc4)CC3)n2Cc2ccc(F)cc2)n(C)c1=O | nt | nt | ? | -2.7% | nt |
| CN1CCc2cc(O)c(O)cc2[C@H](c2ccccc2)C1 | i | 1.7e-08 | 10% | -0.7% | i |
| Cc1ccc(OCC(=O)N(C)CCc2ccccn2)cc1 | i | 4.6e-09 | nt | nt | i |
| c1ccn(-c2ncnc3sc4c(c23)CCCC4)c1 | i | 2.5e-08 | ? | 0.3% | i |
| Cc1noc(C)c1C(=O)OCC(=O)c1c(N)n(CC(C)C)c(=O)n(C)c1=O | i | 5.1e-09 | 1% | -0.6% | i |
| O=C(Nc1ccon1)c1ccc(S(=O)(=O)N2CCCCCC2)cc1 | i | 3.8e-08 | -2% | -2.3% | i |
| N#CC(C(=O)Nc1ccc(Cl)cc1)=C1Nc2ccccc2N1 | i | 1e-09 | ? | 4.2% | i |
| Cc1ccc(-n2nnc3c(=O)n(CC(=O)OCc4ccccc4)cnc32)cc1 | nt | nt | ? | -1.8% | nt |
| Oc1ccc(-c2nnc(SCC3CCCCC3)o2)cc1 | i | 3.8e-09 | -1% | 0.9% | i |
| O=C(O)c1ccc(NS(=O)(=O)c2ccc3c(c2)OCCO3)cc1 | nt | nt | -4%[11.4 µM] | 2.8% | nt |
| CCC1CCCCN1C(=O)Nc1cccc(NC(=O)N2CCCCC2CC)c1 (centres undefined) | i | 1.1e-08 | 3% | 2.4% | i |
| Cc1csc(NC(=O)Nc2cccc(Cl)c2)n1 | i | 1e-09 | -6% | -3.7% | i |
| O=C1c2ccccc2-c2nccnc21 | i | 1e-09 | 0% | -0.4% | i |
| CN1CCN(c2ncnc3ccc(-c4cccc(C#N)c4)cc23)CC1 | i | 1.3e-08 | 9% | -0.1% | i |
| CCn1c(SCc2c(F)cccc2Cl)nnc1-c1ccco1 | i | 1e-09 | ? | -2.4% | i |
| CCN(CC(=O)NCc1cccs1)S(=O)(=O)c1cccc(C(C)=O)c1 | i | 2.8e-08 | -3% | -3.2% | i |
| O=C1C2(c3ccccc3)CN(CCCO)CC1(c1ccccc1)CN(CCCO)C2 | i | 3.4e-08 | ? | -1.6% | i |
| Cn1c(SCc2nc3ccccc3[nH]2)nnc1-c1ccccn1 | i | 3.7e-08 | -2% | 0.3% | i |
| CN(Cc1ccccc1)Cc1nc2c(c(=O)n(C)c(=O)n2C)n1CCCc1ccccc1 | i | 2.6e-08 | ? | -0.3% | i |
| Cc1ccccc1OCCn1c(=O)oc2ccccc21 | i | 8.6e-09 | 29% | -1.3% | i |
| O=C(CN(CC1CCCO1)C(=O)CCC(=O)Nc1nccs1)NCc1ccc2c(c1)OCO2 (centres undefined) | i | 2.2e-08 | -1% | -0.1% | i |
| CCCCNC(=O)CS(=O)Cc1nc(-c2cccs2)oc1C (centres undefined) | nt | nt | 0% | 0.1% | nt |
| Cc1nc2cnc(N3CCOCC3)nc2n(C2CC2)c1=O | i | 2.4e-09 | -1% | 7.4% | i |
| FC(F)Sc1nnc(-c2cccs2)n1-c1ccccc1 | i | 3.1e-08 | ? | 0.7% | i |
| CCOc1ccccc1N1CC(C(=O)Nc2nccs2)CC1=O (centres undefined) | i | 1e-09 | -1% | -1.9% | i |
| Cc1ccc(C)c(-n2c(SCC(=O)NCC3CCCO3)nnc2-c2ccoc2C)c1 (centres undefined) | i | 4.8e-09 | ? | 0.7% | i |
| CCOc1cc(C)c(Cl)cc1S(=O)(=O)NCC1CCCO1 (centres undefined) | i | 1e-09 | 13% | 0.0% | i |
| COc1ccc(N2CCn3c2nc2c3c(=O)n(CCc3ccccc3)c(=O)n2C)c(OC)c1 | i | 4.7e-09 | -10% | -0.6% | i |

Grouped by structure, the compounds so far containing a cyano group.
| Compound | A488 fluor | A647 fluor | TSHR ag | AID923 | Resorufin fluor |
| --- | --- | --- | --- | --- | --- |
| N#CC(C(=O)Nc1ccc(Cl)cc1)=C1Nc2ccccc2N1 | i | 1e-09 | ? | 4.2% | i |
| CN1CCN(c2ncnc3ccc(-c4cccc(C#N)c4)cc23)CC1 | i | 1.3e-08 | 9% | -0.1% | i |

Additional entries
| Compound | A488 fluor | A647 fluor | TSHR ag | AID923 | Resorufin fluor |
| --- | --- | --- | --- | --- | --- |
| C=CCSc1nnc(NC(=O)CSc2nc3ccccc3o2)s1 | i | 1e-09 | -6% | 0.9% | i |
| COc1ccc(CC(=O)Nc2nccs2)cc1OC | i | 1e-09 | 15% | 2.9% | i |
| CCCn1c(N)c(C(=O)CSc2nnc(-c3ccco3)n2Cc2ccccc2)c(=O)[nH]c1=O | i | 3.7e-08 | -1% | 0.5% | i |
| Cc1nc2sc(C(c3ccco3)N3CCN(C(c4ccccc4)c4ccccc4)CC3)c(O)n2n1 (centres undefined) | nt | nt | 1% | -2.1% | nt |
| O=C(Nc1ccc2c(c1)OCCO2)c1ccc2nccnc2c1 | i | 7.2e-09 | -2% | -2.0% | i |
| CCN(CC)CC[n+]1ccc2c(C)c3[nH]c4ccccc4c3c(C)c2c1 | i | 4e-08 | 4%[11.4 µM] | 3.5%[11.5 µM] | i |
| Nn1cc(-c2ccccc2)nc1SCC(=O)N1CCN(S(=O)(=O)c2ccccc2)CC1 | i | 3.6e-08 | -1% | -1.1% | i |
| COC(=O)C1=C(C)Nc2ccc(C)cc2S1 | nt | nt | -14% | 1.6% | nt |
| C[N+](C)(CCCOc1ccccc1)c1ccccc1 | i | 1.3e-08 | 8%[25.6 µM] | 0.1%[25.7 µM] | i |
| Cn1c(Cc2ccccc2)nnc1SCC(=O)N1CCOCC1 | i | 2.8e-08 | 1% | -0.2% | i |
| CCOC(=O)N1CCN(C(=O)CCCN2C(=O)CSc3nc(C)cc(C)c32)CC1 | i | 1e-09 | -2% | -0.7% | i |
| CCCCN(C)C(=O)C1CCN(CCCc2ccccc2)CC1 | i | 8e-09 | ? | -0.8% | i |
| Cc1ccc(-c2nc3ccccc3n3nnnc23)cc1 | i | 6.4e-09 | 8% | -2.1% | i |
| Cc1ccc(C)c(NC(=O)CSc2nnc(Cc3cccn3C)n2-c2ccc(F)cc2)c1 | nt | nt | 10% | -0.7% | nt |
| COc1ccc(OC)c(NC(=O)CSc2nnc(CNc3ccc(C)cc3C)o2)c1 | i | 6.6e-09 | -7% | 1.2% | i |
| CCOC(=O)C1=C(c2ccccc2)NC(SCC(=O)Nc2ccccc2C)=C(C#N)C1c1ccco1 (centres undefined) | i | 1e-09 | nt | nt | i |
| CSc1cccc(NC(=O)CN2C(=O)c3ccccc3S2(=O)=O)c1 | nt | nt | 11% | -0.6% | nt |
| Cc1occc1-c1nnc(SCC(=O)N2CCN(c3ccc(F)cc3)CC2)n1C | i | 3.6e-09 | 20% | 1.8% | i |
| O=C(Cn1c(=O)n(Cc2ccco2)c(=O)c2ccccc21)Nc1cccc(Cl)c1 | nt | nt | 8% | -0.7% | nt |
| CCOc1ccc(N2CC(C(=O)NCCC3=CCCCC3)CC2=O)cc1 (centres undefined) | nt | nt | 10% | -0.1% | nt |
| O=C1CCC(=O)c2oc3ccccc3c2N1 | i | 3.9e-09 | -4% | -1.6% | i |
| Cc1ccc(C)n1CCN1CCN(C(=O)CSc2nc3ccccc3nc2N2CCOCC2)CC1 | i | 2.5e-08 | 3% | 1.5% | i |
| CC1=C(C(=O)Nc2ccccc2)C(c2ccncc2)C(C#N)=C(SCC(=O)NC2CC2)N1 (centres undefined) | i | 2.4e-08 | -7% | 0.9% | i |
| CN(C)C(=O)CSc1nc(SCC(=O)N(C)C)n(-c2ccccc2)n1 | i | 3.8e-08 | 0% | -1.5% | i |
| O=C(CCn1nc(-c2ccc(Cl)cc2)ccc1=O)NCCCN1CCCCCC1 | i | 4.5e-08 | 1% | -0.2% | i |
| O=C(Cn1ncc2c(=O)oc3ccccc3c21)NCCCN1CCCC1=O | nt | nt | -5% | -0.7% | nt |
| Cc1ccc2c(c1)[nH]c1c(N3CCN(Cc4ccccc4)CC3)ncnc12 | i | 2.2e-08 | ? | 1.4% | i |
| O=c1c2ccccc2nc(-c2ccccc2)n1Cc1ccco1 | i | 9.7e-09 | ? | -1.2% | i |
| CCOC(=O)c1cnc2c(C#N)c(C)nn2c1-c1ccccc1 | nt | nt | 2% | 4.6% | nt |
| CC(C)CCN(C(=O)CNC(=O)c1ccco1)C(C(=O)NC1CCCCC1)c1ccco1 (centres undefined) | i | 4.8e-08 | 2% | -0.3% | i |

(continued)
| Compound | A488 fluor | A647 fluor | TSHR ag | AID923 | Resorufin fluor |
| --- | --- | --- | --- | --- | --- |
| COc1ccccc1-c1nnc(SCC(=O)N2CCC(C)CC2)o1 | i | 3.5e-08 | ? | 0.2% | i |
| O=C1C2ON(c3ccccc3)C(c3cccnc3)C2C(=O)N1Cc1ccccc1 (centres undefined) | i | 4.3e-09 | nt | nt | i |
| O=S(=O)(c1ccccc1F)N(Cc1ccco1)Cc1nnc(-c2ccccc2Br)o1 | i | 3.7e-09 | ? | 2.9% | i |
| O=C(CN1C(=O)C2C3C=CC(C3)C2C1=O)NCc1ccc2c(c1)OCO2 (centres undefined) | i | 1.7e-09 | 4% | -0.7% | i |
| N#CC1=C2C=Cc3ccccc3N2CCCC1=O | i | 2.7e-08 | 3% | 7.5% | i |
| CC1(C)CC(=O)C2=C(C1)NC(=O)CC2c1ccc(F)cc1 (centres undefined) | i | 2.9e-08 | -2% | -0.4% | i |
| CCc1ccc(C(=O)N2CCN(c3ccc(F)cc3)CC2)s1 | i | 2.6e-08 | ? | -0.8% | i |
| O=S(=O)(Nc1ccc2c(c1)OCCO2)c1ccc2oc3ccccc3c2c1 | i | 1e-09 | ? | 1.0% | i |
| Oc1ccc(-c2nc3ncccn3c2Nc2ccc3c(c2)OCO3)cc1 | i | 1e-09 | -25% | 2.0% | i |
| COc1ccc(S(=O)(=O)N2CCC(C(N)=O)CC2)c2ccccc12 | i | 1e-09 | 6% | -1.7% | i |
| CCOCCCn1c(SCC(=O)Nc2ccc(C(N)=O)cc2)nc2ccccc2c1=O | i | 3.8e-08 | -5% | 1.2% | i |
| O=C(NCCN1CCCCC1)c1c(O)c2ccccc2[nH]c1=O | i | 2e-08 | -15% | 0.1% | i |
| CN(C)c1ncc2nc(CCc3ccccc3)c(=O)n(C3CC3)c2n1 | i | 2.3e-08 | ? | 16% | i |
| COC(=O)c1ccc(C(NC(=O)OCc2ccccc2)/C(I)=C/[C@@H](C)C(=O)NCc2ccc(OC)c(O)c2)cc1 (some centres undefined) | nt | nt | 25µM* | 0.9% | nt |
| COC(=O)C(O)(NC(=O)NC(C)=O)C(F)(F)F (centres undefined) | i | 1e-09 | 5% | -1.3% | i |
| CCC(Oc1ccccc1)C(=O)N1CCC(C(N)=O)CC1 (centres undefined) | i | 4.2e-08 | 0% | -1.6% | i |
| COc1ccc(C)cc1NC(=O)c1nnn(Cc2cccc(F)c2)c1N | nt | nt | -25% | -0.6% | nt |
| CC(C)CCN1C(=O)c2ccc(C(=O)NCC3CCCO3)cc2C1=O (centres undefined) | i | 1.3e-08 | -6% | -2.0% | i |
| Cc1ccc(CSC2=Nc3ccccc3C3=NC(CC(=O)NCc4ccco4)C(=O)N23)cc1 (centres undefined) | i | 2.5e-08 | ? | 2.7% | i |
| CC(C(=O)Nc1ccccc1-c1ccccc1)N1CCN(C(=O)c2ccco2)CC1 (centres undefined) | i | 4e-08 | nt | -0.8% | i |

Screening results deposited in PubChem by National Center for Advancing Translational Sciences (NCATS).
